# Source: PubChem
# NS1 inh – influenza NS1 inhibition; AID 2326; Potency, µM (series often up to 46.1 µM), for the others: at the highest dose activity, positive = more growth; S. cerevisiae slowed by influenza A NS1, growth recovery by OD600; actives 0.4% (n = 270,000); note: actives are rising curves; nearly all actives have a fitted effect of over 50% in size
#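 S. cerevisiae expressing influenza A NS1, grown in glucose, washed, then diluted 1:100 into pH 6.0 -URA galactose medium with 23 nl compound. Growth recovery read as OD600; NS1-free strain serves as control.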
# SARS PLP yeast – inhibitors of SARS-CoV papain-like protease in yeast | Potency, µM (doses to about 32.9 µM), inactives show at the top dose activity, positive = growth rescue | S. cerevisiae expressing SARS-CoV PLpro, growth rescue; control for the full effect not named in the record | AID 485353 | actives 0.19% (n = 330,000); note: 0% is about no effect; nearly all actives have a fitted effect of over 55% in size; growth read by luminescence after 48 h
# Cruzain Triton – blocks cruzain activity in presence of Triton detergent | P25779 | purified cruzain, Z-FR-AMC fluorescence, 0.01% Triton | Potency, µM, inactives show max response, negative = inhibition, actives largely listed as inhibitors | actives 0.43% (n = 200,000); active = well fitted curve in the direction sought with a large enough effect; inconclusive = small, poorly fitted or top-dose-only effect, or another doubt; inactive = no such curve, though single readings can be large; an effect the other way counts as inactive or inconclusive;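 note: plate controls were neutral wells for no effect and buffer without enzyme for full effect; nearly all actives have a fitted effect of over 40% in size; top concentration of the series not given in the record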
# Target sequence (P25779 123-467 limits assumed): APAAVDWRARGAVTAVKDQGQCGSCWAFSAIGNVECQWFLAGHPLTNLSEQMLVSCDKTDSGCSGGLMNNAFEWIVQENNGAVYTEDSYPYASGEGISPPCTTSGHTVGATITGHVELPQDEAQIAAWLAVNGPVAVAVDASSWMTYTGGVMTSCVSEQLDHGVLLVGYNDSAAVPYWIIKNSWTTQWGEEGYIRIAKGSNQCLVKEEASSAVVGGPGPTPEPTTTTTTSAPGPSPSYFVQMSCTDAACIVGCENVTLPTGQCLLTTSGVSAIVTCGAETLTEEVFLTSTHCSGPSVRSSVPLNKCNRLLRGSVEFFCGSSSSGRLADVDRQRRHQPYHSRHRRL
#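 Detergent-containing run (0.01% Triton X-100) in acetate buffer pH 5.5 with 5 mM DTT: enzyme at 1.5 nM final, 15 min compound preincubation at room temperature, then 2 uM Z-FR-AMC substrate. Activity taken as 60 s fluorescence increase at 360/450 nm.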
# Cruzain noTriton – blocks cruzain activity in detergent-free assay | actives 2.3% (n = 200,000) | purified cruzain, Z-FR-AMC fluorescence, no detergent | AID 1476 | P25779 | Potency, µM, for the others: max response, negative = inhibition, usual class: inhibitors; active = well fitted curve in the direction sought with a large enough effect; inconclusive = small, poorly fitted or top-dose-only effect, or another doubt; inactive = no such curve, though single readings can be large; an effect the other way counts as inactive or inconclusive;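 note: plate controls were enzyme without inhibitor for no effect and buffer without enzyme for full effect; nearly all actives have a fitted effect of over 40% in size; top concentration of the series not given in the record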
#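 Detergent-free condition (0.00005% Triton X-100) in acetate buffer pH 5.5 with DTT. 1.5 nM enzyme and compound were pre-mixed 15 min, then 2 uM Z-FR-AMC substrate added; reaction progress from fluorescence change between first and third reads (60 s).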
# Lassa entry inh – blocks Lassa virus binding to or entry into cells | Lassa virus pseudotype entry inhibition, cell reporter; control for the full effect not named in the record | AID 540256 | actives 1.2% (n = 300,000) | Potency, µM (titrated, usually from 37.9 µM), for inactives: at the highest dose activity change, negative = inhibition, hits mostly inhibitors; active means well fitted inhibition curve with a large enough effect; inconclusive means small, poorly fitted or top-dose-only effect, or effect the other way; inactive means flat fitted curve, though single readings scatter; tested in HEK293 cells; note: % is set by controls: 0 for no effect and ±100 for the full control effect; nearly all actives have a fitted effect of over 50% in size; luciferase read-out
# RE007 growth inh – less growth of the S. pombe RE007 Vpr strain; S. pombe RE007 Vpr strain, BacTiter-Glo ATP luminescence, 24 h; control for the full effect not named in the record; Potency, µM (top dose mostly 92.2 µM), without a hit: at the top dose activity change, negative = less growth; actives 0.21% (n = 360,000); AID 651644; active = well fitted falling curve with a large enough effect; inconclusive = small, poorly fitted or top-dose-only effect; inactive = no such curve, though single readings can be large or run the other way;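 note: % is set by controls: 0 for no effect and ±100 for the full control effect; nearly all actives have a fitted effect of over 50% in size; the assay follows cell death caused by Vpr and the record does not say whether a fall means rescue or toxicity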
#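 Fission yeast RE007 carrying one integrated HIV-1 vpr copy, seeded at OD 0.01 in PMG+AL medium with 23 nL pinned compound. Grown 24 h at 30 degrees; viability read by BacTiter-Glo luminescence after 5 min.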
# StopGo reporter – lowers the luciferase signal of an FMDV 2A StopGo reporter. human cells with a luciferase reporter of 2A StopGo recoding; control for the full effect not named in the record. Potency, µM (highest dose often 57.9 µM), inactives show at the highest dose signal change, negative = less light. actives 1.2% (n = 410,000). AID 1159524; active = well fitted falling curve with a large enough effect; inconclusive = small, poorly fitted or top-dose-only effect; inactive = no such curve, though single readings can be large or run the other way; tested in HEK293T cells; note: % is set by controls: 0 for no effect and ±100 for the full control effect; nearly all actives have a fitted effect of over 45% in size; luciferase light after 4 h
# MARV entry inh – blocks Marburg virus binding to or entry into cells | Marburg virus pseudotyped entry inhibition, cell reporter; control for the full effect not named in the record; about a third of the inactives were read at about 46 µM | Potency, µM (series often up to 37.8 µM), inactives show at the top dose activity change, negative = inhibition, usual class: inhibitors | actives 1.8% (n = 300,000) | AID 540276; active = well fitted inhibition curve with a large enough effect; inconclusive = small, poorly fitted or top-dose-only effect, or effect the other way; inactive = flat fitted curve, though single readings scatter; tested in HEK293 cells; about a fifth of its hits are not listed in these tables; note: % is set by controls: 0 for no effect and ±100 for the full control effect; luciferase read-out
# An asterisk follows results filed as active; ? = inconclusive; nt = not tested or not shown; & = joins results of further samples; [ ] = remark or other dose. Unless noted, calls come from the whole dose curve; as a rule, active means well fitted rising curve with a large enough effect; inconclusive means small, poorly fitted or top-dose-only effect; inactive means no such curve, though single readings can be large or run the other way. Potency is the fitted concentration of half-maximal effect.
SMILES,NS1 inh,SARS PLP yeast,Cruzain Triton,Cruzain noTriton,Lassa entry inh,RE007 growth inh,StopGo reporter,MARV entry inh
NNC(=O)Cn1c(-c2ccccc2)cc2ccccc21,?,nt,nt,nt,?,-9%,-11%,?
CCCn1c(NC(=O)c2ccco2)nc2ccccc21,-15%,-7%,-6.2%,-14%,-8%,-17%,nt,1%
O=S(=O)(c1ccc(OC(F)(F)F)cc1)N1CCC(c2nnnn2-c2ccc(F)cc2)CC1,nt,nt,-0.2%,-8%,21%[46.1 µM],nt,-14%,0%[46.1 µM]
CN(C)c1nc(N(C)C)nc(N(C#N)CCOc2ccccc2)n1,-4%,-5%,-12%,-10%,-20%,10%,?,-23%
Cc1ccc(N(C(C)C(=O)Nc2cccc(N(C)S(C)(=O)=O)c2)S(C)(=O)=O)cc1 (stereo unspecified),-4%,0%,nt,nt,-20%,-11%,?,-9%[46.1 µM]
Cc1cc(SCC(=O)Nc2ccc(O)cc2)n2nc(C)c(-c3ccccc3)c2n1,-6%,1%,nt,nt,-4%,10%,-24%,-28%[46.1 µM]
Cc1ccc(-c2nc(CS(=O)CC(=O)NC3CC3)c(C)o2)cc1 (stereo unspecified),29%,2%,nt,nt,nt,-4%,6%,nt
CCOC(=O)c1c(-c2ccccc2)oc2ccc(N(C(C)=O)S(=O)(=O)c3cc(C)ccc3C)cc12,nt,nt,-3.0%,-10%,-11%[46.1 µM],nt,11%,-12%[46.1 µM]
Cc1ccc(C)c(OCCn2cc(/C=C(\C#N)C(=O)NCc3cccs3)c3ccccc32)c1,9%,1%,6.1%,-24%,-15%,-11%[3.69 µM],0%,?
COC(=O)C1C/C(=N\NS(=O)(=O)c2ccc(C)cc2)c2ccccc2C1 (stereo unspecified),4%,-2%,nt,nt,5%[46.1 µM],3%,20%,0%[46.1 µM]
COc1ccc2c(CNCc3ccc(C)o3)c(C(=O)O)n(Cc3ccccc3C)c2c1,nt,nt,-5.9%,13%,5%[46.1 µM],nt,-3%,nt
CCOc1cc(C2/C(=C(/O)c3ccc(S(=O)(=O)N4CCCCC4)cc3)C(=O)C(=O)N2CCOC)ccc1O (stereo unspecified),5%,-1%,nt,nt,nt,4%,-12%,nt
O=[N+]([O-])c1cccc(-c2ccc(/C=N/NC(=S)NCc3ccco3)o2)c1,1%,3%,nt,nt,-27%,0%,-28%,?
O=C(CCNS(=O)(=O)c1ccccc1C(F)(F)F)NCc1ccc2c(c1)OCO2,9%,-10%,0.6%,-2%,-6%,-9%,29%,-10%
CCCCCC(=O)NNC(=O)c1ccc(F)cc1,6%,-8%,0.0%,11%,-3%,-13%,-5%,-2%
COc1ccc(-c2nc(C3CCCCC3)no2)cc1OC,-53%,-8%,-3.3%,?,49%[14.3 µM],-26%,71%[activator],?
Cc1ccccc1NC(=O)C1CCCN1C(=O)NC1CCCCC1 (stereo unspecified),2%,8%,2.4%,-15%,9%,9%,-12%,9%
CC(C)C(=O)Nc1cc(C(F)(F)F)ccc1N1CCOCC1,-6%,1%,0.6%,-1%,24%,3%,nt,-2%
N=c1n(CCO)c2ccccc2n1CCOc1ccccc1,-2%,1%,4.8%,-4%,-4%,-5%,-26%,?
CC(C)c1ccc2oc(=O)cc(CN3CCN(c4ccccc4)CC3)c2c1,-86%,-2%,-2.7%,9%,?,-10%,?,?
O=C(CCCN1C(=O)/C(=C/c2ccccc2Cl)SC1=S)Nc1ccccn1,4%,-3%,-6.9%,?,?,-20%,?,?
Cc1cccc(N2C(=O)CC(N3CCOCC3)C2=O)c1 (stereo unspecified),-3%,-6%,2.6%,4%,17%,-28%,-18%,?
COc1ccc(NC(=O)Cn2nc([N+](=O)[O-])c(Cl)c2C)cc1OC,-7%,1%,nt,nt,nt,34%,-23%,nt
COc1ccccc1NC(=O)COC(=O)/C=C/c1ccc2c(c1)OCO2,nt,0%,nt,nt,?,2%,3%,28%[46.1 µM]
Cc1ccc(NC(=O)CN(C)CC(=O)Nc2ccccc2-c2ccccc2)cc1,5%,-3%,nt,nt,?,-11%,-28%,?

# New compounds follow.
SMILES,NS1 inh,SARS PLP yeast,Cruzain Triton,Cruzain noTriton,Lassa entry inh,RE007 growth inh,StopGo reporter,MARV entry inh
O=C(c1cc2cc(Cl)cc(Cl)c2oc1=O)N1CCOCC1,3%,-2%,-3.6%,7%,-2%,-13%,17%,15%
CCOc1ncccc1C(=O)OCC(=O)Nc1ccc2c(c1)CCC2,nt,?,nt,nt,29%,3%,2%,4%
CCS(=O)(=O)c1ccc(NC(=O)c2ccccc2Cl)c(O)c1,4%,-1%,3.5%,-1%,2%,7%,-12%,-3%[46.1 µM]
Cc1ccc(NC(=O)C2=CN3CCS(=O)(=O)N=C3C=C2)cc1,nt,2%,nt,nt,18%,12%,13%,?
CCS(=O)(=O)N1N=C(c2cccs2)CC1c1cc2cc(C)ccc2nc1Cl (stereo unspecified),17%,2%,nt,nt,nt,8%,52%[activator],nt
Cc1cc(N2CCOCC2)nc(NCc2ccccc2)n1,-18%,2%,2.6%,-3%,-26%,-16%,nt,?
CC(C)(C)c1ccc(C(=O)O)c(C(=O)c2ccc(C(=O)O)cc2)c1,-1%,0%,nt,nt,19%,9%,-2%,15%[46.1 µM]
Cc1nn(CCO)c2ncc(C(=O)c3cc(Cl)ccc3O)cc12,2%,0%,nt,nt,-17%,6%,-7%,-2%[46.1 µM]
O=S(=O)(c1ccccc1)N(CC(O)CN1CCOCC1)c1ccccc1 (stereo unspecified),2%,-3%,nt,nt,4%,7%,0%,21%[46.1 µM]
O=C(O)Cc1ccc(-c2ccccc2)cc1,0%,16%,4.1%&-2.1%,10%&-12%,2%,-10%[18.4 µM],-12%,12%
COc1ccc(-n2nnc3c(SC(C(C)=O)C(=O)N(C)C)ncnc32)cc1 (stereo unspecified),7%,-1%,nt,nt,nt,-6%,32µM*,nt
O=[N+]([O-])c1ccc(/C=N\N2CCN(c3ccc(Cl)cc3)CC2)cc1,2%,18%,3.2%,16µM*,-11%,3%,-22%,-4%
COc1cccc(Nc2nc(N)nc(C(F)(F)F)n2)c1,-35%,-2%,3.4%,5%,7%,2%,-3%,?
O=C(COC(=O)c1ccc2c(c1)OCO2)Nc1ncc(Cl)cc1Cl,-3%,-25%,-4.6%,-15%,0%,-13%,-14%,21%[46.1 µM]
COc1cccc(/C=C/c2nc(C#N)c(N3CCCCCC3)o2)c1,nt,nt,-8.4%,29%,?,nt,-16%,36%[46.1 µM]
CCc1cc2ccc(C)c(C)c2nc1SCC(=O)NNC(=O)c1ccco1,18%,-4%,nt,nt,nt,-8%,1%,-23%[46.1 µM]
O=C(c1cc(Cl)nc2ccccc12)N(Cc1nnc(-c2ccc(Cl)cc2)o1)C1CC1,nt,1%,nt,nt,-9%,-3%,-3%,?
CC(=O)N1CCN(c2ccc(NC(=O)c3ccc(C)cc3)cc2)CC1,1%,-2%,3.3%,0%,1%,0%,13%,29%
O=C(Cn1ccc2cc(S(=O)(=O)N3CCCC3)ccc21)NCCc1ccccc1,7%,0%,nt,nt,-2%[46.1 µM],-4%,19%,?
CN(C)CC1CCCCC1OC(=O)c1ccc(Br)cc1 (stereo unspecified),-6%,-4%,nt,nt,-7%,-10%,-15%,-23%[46.1 µM]
COc1cc(CC(=O)Nc2sccc2C(N)=O)cc(OC)c1OC,19%,-1%,-2.4%,-2%,10%,4%,-16%,-1%[46.1 µM]
COc1ccc(CNC(=O)C2CCCN2S(=O)(=O)c2ccc(F)cc2)cc1 (stereo unspecified),-4%,0%,nt,nt,-4%,21%,6%,4%[46.1 µM]
O=C(CCC(=O)N(CC(=O)NC1CCCCC1)c1ccc2c(c1)OCO2)Nc1ccccn1,-4%,1%,9.6%,6%,-24%,1%,45%[activator],-1%
COc1ccc(/C(O)=C2\C(=O)C(=O)N(CCN3CCOCC3)C2c2ccccc2OC)cc1 (stereo unspecified),-1%,11%,-5.0%,-2%,-5%,-25%,-5%,?
O=C(CNC(=O)c1ccccc1)Nc1ccsc1C(=O)O,2%,0%,nt,nt,9%[46.1 µM],15%,-9%,12%[46.1 µM]

# Other structures:
SMILES,NS1 inh,SARS PLP yeast,Cruzain Triton,Cruzain noTriton,Lassa entry inh,RE007 growth inh,StopGo reporter,MARV entry inh
COc1ccc(C(=O)OCC(=O)NC(C)(C)C)cc1[N+](=O)[O-],-10%,-7%,1.8%,-5%,1%,-23%,0%,-2%
Cc1ccc(CNC(=O)C(=O)NCC(c2ccco2)S(=O)(=O)c2cccs2)cc1 (stereo unspecified),nt,nt,-2.7%,-2%,?,nt,-23%,nt
COc1ccc(N(CC(=O)NCc2ccco2)S(C)(=O)=O)cc1,3%,1%,-1.5%,-4%,-7%,-6%,nt,25%
CC(C)(C)CN1CCN(Cc2c[nH]c3ccccc23)CC1CCO (stereo unspecified),?,2%,nt,nt,nt,0%,-6%,nt
Cc1c(C(c2cccc([N+](=O)[O-])c2O)c2c(C)n(C)n(-c3ccccc3)c2=O)c(=O)n(-c2ccccc2)n1C,11%,1%,-2.8%,1%,-7%[14.3 µM],-8%,-7%,4%
CCOC(=O)c1c(NC(=O)Cc2cccs2)sc2c1CCCC2,-7%,-9%,-7.9%,-15%,?,21%,-4%,?
Cc1ccc(OCc2nnc(-c3ccc(Cl)cc3)o2)cc1,nt,nt,nt,nt,?,-17%,18%,10%
CC1(C(=O)NCC2CC2)C=CC2(CCCCC2)N1C(=O)c1ccccc1 (stereo unspecified),-1%,-3%,0.6%,-3%,nt,8%,43%[activator],nt
COC(=O)c1cc(OC)c(OC)cc1NC(=S)Nc1cc(Cl)ccc1OC,13%,11%,-12%,-22%,?,3%,-22%,15%
Cc1ccc(C(C)C)c(OCC(=O)Nc2nc3c(s2)CCCC3)c1,nt,nt,-5.2%,-5%,3.2µM*,nt,-3%,?
Cc1ccc2c(c1)CC1(CN2C)C(=O)NC(=O)N(C(C)C)C1=O (stereo unspecified),-1%,1%,1.7%,-1%,5%,2%,-7%,-3%
O=Cc1cn(-c2ccccc2)nc1-c1ccccn1,-64%,-2%,nt,nt,0%,7%,21%,14%[46.1 µM]
CC(C)c1ccc(NCCC(=O)c2cccs2)cc1,-28%,8%,-4.3%,-3%,22%,32µM*,16%,?
COc1ccc(C(=O)NC2CCCN(Cc3ccc(Cl)cc3)C2)c(OC)c1 (stereo unspecified),-19%,-5%,nt,nt,nt,-22%,?,nt
O=C(COC(=O)c1ccncc1)c1ccc(Br)cc1,2%,1%,nt,nt,nt,1%,8%,-24%[46.1 µM]
